TAR Tat displ: TAR RNA-Tat peptide displacers, HIV-1, primary screen, biochemical, FRET, FAM/TAMRA-labeled Tat; HIV-1 TAR RNA, Tat peptide displacement FRET; stronger effect = higher value; z-score (no concentration beside the values); 100,000 compounds, 0.6% hits;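 note: score is relative to mean and SD of negative controls; some compounds called inactive have numbers as strong as hits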
CDC25B CDK2 inh: primary biochemical HTRF screen for blockers of M-phase inducer phosphatase 2 binding to CDK2/cyclin A. P30305+P24941. HTRF CDC25B-CDK2/CyclinA binding, anti-His/anti-Flag; stronger effect = higher value. z-score (concentration not given with the values). 94,000 compounds, 0.72% hits. AID 1259370, 2018;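 note: score is relative to mean and SD of negative controls; strong numbers were not always called active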
An asterisk follows results filed as active; . = no result given.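 Rule for the calls: active = z-score from 3 up in half or more of its runs; inactive = the rest.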 Compounds were not picked by outcome; overall some 0.97% were active at least once.

The line under a structure holds: CDC25B CDK2 inh, TAR Tat displ
1) CC(C)CCSc1nc(N2CCCC2)c2c(c1C#N)CC(C)(C)OC2
  -0.14, 0.16
2) CN(C)c1ccc(NC(=O)c2nc3ncccn3n2)cc1
  -5.9, 1.1
3) CCCc1nnc(NC(=O)c2cc(=O)c3ccc(C)c(C)c3o2)s1
  -1.3, -0.93
4) CCC12CN3CC(CC)(CN(C1)C3c1ccc(N)cc1)C2=O (stereo not drawn)
  -0.44, 1.1
5) Cc1cccc(C(=O)OCc2cc(=O)n3nc(C)sc3n2)c1
  ., -0.36
6) C=CCSc1nnc2c3sc4nc(N5CCOCC5)c5c(c4c3ncn12)CC(C)(C)OC5
  -1, 1.6
7) CCN1CCN(CCCNc2ncnc3onc(-c4ccc(Cl)cc4)c23)CC1
  0.42, -0.95
8) COC(=O)c1sccc1N=Nc1c(O)ccc2ccccc12
  -1.6, .
9) Cc1ccc(CNC(=O)CCCn2nc(C)n3c(cc4oc(C)cc43)c2=O)cc1
  -1.2, 0.96
10) CCOC(=O)C(C#N)N=Nc1ccccc1 (stereo not drawn)
  -1.8, .
11) Cc1ccc2c(c1)-c1onc(C(=O)N3CCCC3)c1CO2
  ., 1
12) CCc1cc2c(cc3c(=O)n(CC(=O)NC4CCCCCC4)nc(CC)n32)s1
  -5.5, .
13) CCCCCCOC1C(C2COC(C)(C)O2)OC2OC(C)(C)OC21 (stereo not drawn)
  -0.34, .
14) COc1ccc(-c2csc3nc[nH]c(=O)c23)cc1
  -1.1, -0.77
15) COc1ccc(NC(=O)c2sc3nc4c(cc3c2N)CCCCC4)cc1
  -0.71, 0.05
16) CCOc1ccc(C2C(C(=O)OCCOC)=C(C)N=C3SCCC(=O)N32)cc1OC (stereo not drawn)
  -1.5, 0.78
17) O=C(NCCc1cccs1)c1cc2cc3ccc(Cl)cc3nc2o1
  ., -5.6
18) CC(C)Cn1cc(NC(=O)N2CCN(c3ccccn3)CC2)c2ccccc2c1=O
  ., 0.13
19) CC(=O)Oc1ccc2nc(-c3ccc4c(c3)C(=O)N(CCC(C)C)C4=O)oc(=O)c2c1
  -1.9, .
20) CCOc1cccc(C(c2c[nH]c3ccccc23)c2c[nH]c3ccccc23)c1O
  -1.1, -0.87
21) Cc1cc(NS(=O)(=O)c2c(C)nc3sc(C)c(C)n3c2=O)ccc1Br
  ., -0.08
22) O=C1CCSc2c1cccc2C(=O)NC1CCCCC1
  ., 1.9
23) C=C(C)Cn1c(COc2ccccc2)n[nH]c1=S
  -0.3, .
24) O=C1CCCN1c1ccc(S(=O)(=O)N2CCc3ccccc3C2)cc1
  ., 0.51
25) CN(C(=O)Cn1c(=O)oc2cc(S(=O)(=O)N3CCCC3)ccc21)c1ccc(Br)cc1
  ., 1.5
26) FC(F)(F)c1ccc(N2CCN(c3ccc(Cl)nn3)CC2)nc1
  -0.83, 0.48
27) O=C(CCC1=NS(=O)(=O)c2ccccc2N1)NCc1cccs1
  ., 0.78
28) Cc1ccc2c(c1)N(CCO)C(C)(C)CC2C (stereo not drawn)
  -1.3, .
29) CCCCN1C(=O)CCc2cc(NS(=O)(=O)CCC)ccc21
  ., 1.6
30) Cc1ccc(OC(=O)CSc2nnc(-c3ccc4c(c3)OCO4)o2)cc1
  -4.7, 1.9

The line under a structure holds: CDC25B CDK2 inh, TAR Tat displ
31) N#Cc1c2c(c(=O)n3c1[nH]c1ccccc13)CCCC2
  -4.3, .
32) Cc1c2cnn(-c3ccccc3)c(=O)c2c(C)n1C(C)C(=O)O (stereo not drawn)
  -1, 0.37
33) O=c1ccc2cc(S(=O)(=O)NC3CCCC3)ccc2[nH]1
  ., 1.7
34) Cc1ccc(Nc2nc(-c3ccccc3)no2)cc1C
  ., 0.33
35) O=C(NC1CCCC1)C1CCCN(C(=O)c2cnn(-c3ccc(F)cc3)c2-n2cccc2)C1 (stereo not drawn)
  ., 0.78
36) COC(=O)c1cc(/C=C(\C#N)C(=O)O)c(OC)cc1OC
  -2.3, .
37) COc1cccc(C2Nc3ccc4ccccc4c3C3=C2C(=O)CC(C)(C)C3)c1OC (stereo not drawn)
  0.98, 0.45
38) CCc1nn2c(=O)cc(COC(=O)c3ccc(OC)cc3)nc2s1
  ., 2.1
39) Cc1cccc(-n2cnc3c(sc4nc(N5CCOCC5)c5c(c43)CC(C)(C)OC5)c2=O)c1
  1.5, -0.54
40) Cc1ccc(-c2cc3ncc(C(=O)c4cc(Cl)ccc4O)cn3n2)cc1
  -1.2, 1.2
41) Cc1cc(Nc2ccc(F)c(Cl)c2)nc(N)n1
  -0.94, .
42) O=C(CCS(=O)(=O)c1cccc2nonc12)N1CCOCC1
  1.6, .
43) CCn1c(SCC(=O)Nc2nc(C)cs2)nnc1-c1cc2ccccc2o1
  ., 5.3*
44) COc1ccc(-c2noc(CN(C3CCCCC3)S(=O)(=O)c3ccc(Cl)cc3)n2)cc1
  -1.4, -1.3
45) CSc1ccc(CNc2ncc(-c3ccc(Br)cc3)n2C)cc1
  -0.18, -1.7
46) Cc1ccc(Nc2nc(N3CCOCC3)c3ccccc3n2)cc1
  -2.4, .
47) Cn1c(NC(=O)c2ccc(Br)cc2)cc(=O)n(C)c1=O
  ., 1.2
48) CC(=O)Nc1ccc(Nc2ncnc3c2c(-c2ccccc2)cn3-c2ccc(F)cc2)cc1
  -2.2, .
49) O=C(Cn1c(=O)c2cccn2c2cccnc21)N1CCN(c2ccc(Cl)cc2)CC1
  ., -2
50) Cc1nnsc1C(=O)Nc1sc2c(c1C(N)=O)CCC2
  -0.26, -0.27
51) COc1cc(NC(=O)Nc2nnc(N3CCCCC3)s2)cc(OC)c1
  -2.1, -1.1
52) COc1cccc(/C=C/c2nc(C#N)c(N3CCNCC3)o2)c1
  0.39, 0.53
53) COc1ccc(C(=O)O/N=C(/c2cccs2)C(C)(C)C)cc1
  -0.27, .
54) CCc1cc2c(cc3c(=O)n(CC(=O)NCC4CCCN4CC)ncn32)s1 (stereo not drawn)
  0.93, .
55) COc1ccc(C)cc1S(=O)(=O)N1CCc2cc3ccc(C)cc3nc21
  -1, -1.2
56) Cc1ccc(-c2c3c(=O)n(C)c(=O)n(C)c3c3c(-c4ccccc4)cc(C)nn23)cc1
  0, 0.16
57) CCOC(=O)C(C)Sc1ccc2nnc(-c3ccc(OC)c(OC)c3)n2n1 (stereo not drawn)
  0.19, .
58) O=C(c1noc2c1CCc1sccc1-2)N1CCc2ccccc2C1
  ., -1.4
59) Cc1cc(N2CCN(c3ccccc3)CC2)nc(C)n1
  -1.7, 0.8
60) Cn1nc(C(=O)NCc2ccc3c(c2)OCO3)c2c1CCN(C(=O)c1cc(-c3cccs3)on1)C2
  ., 1.4

The line under a structure holds: CDC25B CDK2 inh, TAR Tat displ
61) CC1C2=C(CC(C)(C)CC2=O)OC2=C1C(=O)CC(C)(C)C2
  -1.5, .
62) Cc1cc(NC(=O)CSc2nc(N)cc(=O)[nH]2)no1
  -0.41, -0.54
63) O=C(O)COCC(=O)NC1CCCCNC1=O (stereo not drawn)
  -1.1, .
64) Oc1[nH]c2ccc(Cl)cc2c1N=Nc1ccnc2cc(Cl)ccc12
  -2.9, .
65) O=C(C1CC1)N1CCc2c([nH]c3ccccc23)C1c1ccc(F)cc1 (stereo not drawn)
  ., 1.8
66) COc1ccc(CCNS(=O)(=O)c2ccc(CN3C(=O)c4cccnc4C3=O)s2)cc1OC
  ., 0.58
67) CC1(C)CC(N=Cc2c(C(F)(F)F)[nH]n(-c3nc4ccccc4s3)c2=O)CC(C)(C)N1
  -4.2, .
68) O=C1c2cccc3cccc(c23)C(=O)N1CCCN1CCOCC1
  1.2, .
69) CCCCCNc1cc(C)nc2c(-c3ccc(F)cc3)c(C)nn12
  1.1, 0.46
70) S=c1[nH]nc(-c2sc3ccccc3c2Cl)o1
  -2.8, -0.47
71) COc1ccc(Cl)cc1Nc1ccc2cc(S(=O)(=O)N3CCCCC3)ccc2n1
  ., -2.8
72) Cn1c(=O)n(Cc2ccccc2)c(=O)c2c1nc1n2CCN1c1ccc(Cl)cc1
  ., 1.1
73) O=C(Nc1ccc(F)c(Cl)c1)Nc1noc2c1COc1ccccc1-2
  ., 2.4
74) CC(C)CNC(=O)CCSc1nc(-c2ccc3c(c2)OCO3)cc(C(F)(F)F)n1
  19, 1.8
75) CN(C)CCn1c(=O)[nH]c(=O)c2c1ncn2C
  -1.9, 2.2
76) O=C(Nc1cnc2sc3c(n2c1=O)CCCC3)c1ccc(F)cc1
  -0.48, 0.86
77) CCCNc1c(N2CCCC(C(=O)OCC)C2)c(=O)c1=O (stereo not drawn)
  -0.98, -0.93
78) COC(=O)C1=C(C)NC(=O)CC1c1cc(Br)ccc1F (stereo not drawn)
  -1.4, -0.23
79) Cc1cccc(C(=O)OCc2cc(=O)n3c4c(sc3n2)CCCC4)c1
  ., 0.53
80) N#C/C(=C\c1ccc[nH]1)C(=O)NCCc1ccccn1
  -2.2, .
81) COc1ccc2nc(NC3=NCN(CCc4cccs4)CN3)nc(C)c2c1
  -1.1, 0.8
82) CC1CC(C)CN(c2c(-c3ccc4c(c3)OCC(=O)N4)c(=O)c2=O)C1 (stereo not drawn)
  ., 0.04
83) Cc1cccc(-c2noc(CCCOc3ccccc3)n2)c1
  0.53, 0.13
84) CN(C(=O)c1cc2c(s1)-c1ccccc1OC2)c1ccccc1Cl
  0.36, 0.75
85) CCc1nn2c(=O)cc(CSc3nc4ccc(NC(=O)c5cccs5)cc4s3)nc2s1
  ., 1.4
86) CC(CC(=O)Nc1ccc(F)c(F)c1)CC1=NS(=O)(=O)c2ccccc2N1 (stereo not drawn)
  ., 1.1
87) Brc1ccc(CN2CCN(Cc3c[nH]c4ccccc34)CC2)cc1
  1.4, 0.85
88) CCSCCOC(=O)C1=C(C)NC2=C(C(=O)CCC2)C1c1ccccc1Cl (stereo not drawn)
  -0.3, 1.2
89) c1ccc(N2CCN(Cc3cccn3-c3nnc(N4CCCCC4)s3)CC2)nc1
  ., 1
90) OCc1nc2ccccc2n1CC(O)COc1ccc(Br)cc1 (stereo not drawn)
  -0.62, -0.64

In the list so far, these have two or more sulfur atoms:
The line under a structure holds: CDC25B CDK2 inh, TAR Tat displ
6) C=CCSc1nnc2c3sc4nc(N5CCOCC5)c5c(c4c3ncn12)CC(C)(C)OC5
  -1, 1.6
21) Cc1cc(NS(=O)(=O)c2c(C)nc3sc(C)c(C)n3c2=O)ccc1Br
  ., -0.08
27) O=C(CCC1=NS(=O)(=O)c2ccccc2N1)NCc1cccs1
  ., 0.78
43) CCn1c(SCC(=O)Nc2nc(C)cs2)nnc1-c1cc2ccccc2o1
  ., 5.3*
50) Cc1nnsc1C(=O)Nc1sc2c(c1C(N)=O)CCC2
  -0.26, -0.27
66) COc1ccc(CCNS(=O)(=O)c2ccc(CN3C(=O)c4cccnc4C3=O)s2)cc1OC
  ., 0.58
70) S=c1[nH]nc(-c2sc3ccccc3c2Cl)o1
  -2.8, -0.47
85) CCc1nn2c(=O)cc(CSc3nc4ccc(NC(=O)c5cccs5)cc4s3)nc2s1
  ., 1.4

Carrying on:
The line under a structure holds: CDC25B CDK2 inh, TAR Tat displ
91) O=C(C(Cc1ccccc1)N1Cc2ccccc2C1=O)N1CCc2ccccc21 (stereo not drawn)
  ., -1.5
92) CN(N=O)C(=O)N[C@@H]1[C@@H](O)[C@H](O)[C@@H](CO)O[C@@H]1O
  ., 2
93) CCOC(=O)c1cnc(SCc2ccc(F)cc2)nc1N
  ., 0.33
94) COc1ccc(-c2cnn3c(N)c(C#N)cnc23)cc1OC
  -1.9, 1.4
95) CCOC(=O)c1[nH]c(C)c(C(=O)N(CC)C2CCCCC2)c1C
  -1.3, .
96) CN1C(=O)N(C)C2(c3ccccc3)N(N)C(N)=NC12c1ccccc1 (stereo not drawn)
  -2.8, .
97) COC(=O)CC1=CC(=S)Nc2ccccc2N1
  1, -0.56
98) CCn1c(COc2cccc(OC)c2)nc2ccccc21
  -1.2, -0.21
99) COc1cc2c(cc1OC)C(c1sccc1C)CC(=O)N2 (stereo not drawn)
  -0.88, -0.51
100) COCCOC(=O)c1c(C)oc2ccc(OC(=O)c3sc4ccccc4c3Cl)cc12
  -1.9, .
101) CC(C)NC(=O)CSC1=Nc2ccccc2C2=NC(C(C)C)C(=O)N12 (stereo not drawn)
  ., 1.4
102) CCOc1ccc(CCNc2ccc3nnc(C)n3n2)cc1OCC
  0.31, -1
103) COc1ccc(Oc2coc3c(CN(CC(C)C)CC(C)C)c(O)ccc3c2=O)cc1
  0.43, .
104) Cn1c(=O)c2sccc2n2c(CCC(=O)NCc3cccs3)nnc12
  -2, 1.1
105) CN1C(C(=O)N2CCN(C(=O)c3ccco3)CC2)=CC(c2ccc(F)cc2)=NS1(=O)=O
  -2.2, 2
106) CCOC(=O)c1c(S(=O)(=O)Nc2c(C)cc(C)cc2C)c(C)n(C)c1C
  ., 2.1
107) O=C1CC(c2nnc(Cc3ccc4c(c3)OCO4)o2)CN1c1ccccc1 (stereo not drawn)
  -0.78, 0.5
108) CC(C)CCNC(=O)C(NS(=O)(=O)c1cccs1)C(C)C (stereo not drawn)
  ., -0.02
109) O=C1CC(c2cc(Br)ccc2F)c2cnn(-c3nc4ccccc4s3)c2N1 (stereo not drawn)
  ., 4
110) COc1cc2c(cc1OC)C(C)N(C(=S)Nc1cc(OC)c(OC)c(OC)c1)CC2 (stereo not drawn)
  0.07, .
111) O=C(O)Cc1ccccc1C(=O)O
  ., 1.4
112) CC1=C(c2ccc(C)cc2)S(=O)(=O)NC1=NCCC1=CCCCC1
  0.5, .
113) Cc1cc(=O)nc2c3ccccc3n(C(C)C(=O)N3CCN(c4ccccc4)CC3)n12 (stereo not drawn)
  -2.2, 0.63
114) CCOc1ccc(-c2noc(C3CCCN(S(=O)(=O)c4ccc(C)c(C)c4)C3)n2)cc1 (stereo not drawn)
  ., 1.6
115) O=C(/C=C/c1ccc(OC(F)(F)F)cc1)NNC(=O)c1ccc(Cl)cc1
  -1.9, .
116) O=C(O)c1nn2c(C(F)(F)F)cc(-c3ccccc3)nc2c1Cl
  ., 2.1
117) C=CCn1c(=O)c(C(=O)Nc2ncc(C)s2)c(O)c2ccccc21
  ., -0.81
